Source: PubChem BioAssay (several laboratories)
RGS16-Gao HTS = RGS16-Galphao interaction regulator (human); O15492+P09471; bead-based flow cytometry RGS16-Galphao binding, fluorescence; actives lie on both sides; binding response (% of control), % at 10 µM; 0.38% of 220,000 active;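 active means below 25% or above 175%, edge rows of some plates excepted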;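 further: Galphao activated by GDP with aluminum fluoride before binding; 100% = wells without compound and 0% = beads without RGS; some results beyond the cut were filed as inactive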
HSV replic up = HSV replication enhancement. HSV replication augmentation in cells, fold increase. 0.005% of 220,000 active. maximum fold increase;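 active means peak rise of 1.5-fold or more in the series; tested in PC3 cells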;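 further: first round at 10 µM; read as green reporter fluorescence; hits show the peak of a series up to 25 µM; 1 = signal of infected wells without compound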
GALR2 ag = agonists of human galanin receptor 2 (GALR2); activation, %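 (tested at 5 µM)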; 0.48% of 140,000 active; AID 803; O43603; GALR2-expressing cells, agonist activation read-out;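 active means above mean plus 3 SD of all compounds, about 5% in these data, not always enough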;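 further: 0% = vehicle buffer wells and 100% = reference agonist at full effect; tested in CHO reporter cells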
PKD1 inh = inhibitors of human PKD1 kinase. PKD1 kinase fluorescence polarization assay. inhibition, %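 (about 10 µM by stock and volumes)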. 0.056% of 200,000 active;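 active means inhibition of 50% or more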;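 further: controls were vehicle for no effect and a reference inhibitor for full effect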
Target sequence (Q15139 whole entry, looked up): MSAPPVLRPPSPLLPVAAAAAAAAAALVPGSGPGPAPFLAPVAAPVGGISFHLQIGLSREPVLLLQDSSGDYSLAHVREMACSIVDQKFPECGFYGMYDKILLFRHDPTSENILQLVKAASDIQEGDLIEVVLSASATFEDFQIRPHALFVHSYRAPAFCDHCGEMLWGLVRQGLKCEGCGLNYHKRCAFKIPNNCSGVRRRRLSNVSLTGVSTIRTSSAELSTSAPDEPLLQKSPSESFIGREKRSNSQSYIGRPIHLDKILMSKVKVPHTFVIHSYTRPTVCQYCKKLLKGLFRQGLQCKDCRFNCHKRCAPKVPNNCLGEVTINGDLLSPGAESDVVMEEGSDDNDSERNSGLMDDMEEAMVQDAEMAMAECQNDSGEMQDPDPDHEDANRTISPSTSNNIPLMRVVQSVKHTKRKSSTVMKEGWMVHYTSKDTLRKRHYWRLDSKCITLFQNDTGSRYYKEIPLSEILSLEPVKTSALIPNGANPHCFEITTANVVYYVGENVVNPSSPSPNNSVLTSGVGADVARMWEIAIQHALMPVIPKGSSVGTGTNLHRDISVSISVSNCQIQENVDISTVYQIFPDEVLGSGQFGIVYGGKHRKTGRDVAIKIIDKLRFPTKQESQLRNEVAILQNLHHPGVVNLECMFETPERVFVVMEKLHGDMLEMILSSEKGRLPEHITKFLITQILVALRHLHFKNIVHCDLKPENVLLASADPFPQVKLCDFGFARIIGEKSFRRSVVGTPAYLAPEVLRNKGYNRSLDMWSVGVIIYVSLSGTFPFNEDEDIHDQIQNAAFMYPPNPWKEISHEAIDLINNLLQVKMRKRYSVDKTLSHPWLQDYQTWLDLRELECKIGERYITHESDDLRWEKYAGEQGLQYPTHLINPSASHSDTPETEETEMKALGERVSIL
INS promoter inh = TRM-6 insulin promoter activity inhibition | TRM-6 cells (human fetal islet line), insulin promoter-eGFP reporter, imaging; reporter expression induced with tamoxifen | inhibition, % at 2 µM | 0.9% of 130,000 active;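 active means inhibition above the mean plus 3 SD, with well images judged a real hit on visual review, cut at about 60% in these data, passing the limit was not always enough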
INS promoter inh cell count = further read-out of INS promoter inh, marked with its call; normalized cell count, %; measured here: cell count, toxicity; reference of the scale not given here;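 cells exposed to compound for 48 h; stained nuclei by imaging scaled within each plate; lower means fewer cells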
HSV replic up primary fold = also measured in HSV replic up; calls as there; fold increase; compound at 10 µM; measured here: primary screen fold increase 10 uM; tested in PC3 cells;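 GFP signal in the first replicate; 1 = infected wells without compound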
Active calls of the source: *; i = inactive; . = no result given. Hits appear at their usual frequency, and some 1.3% of all compounds hit somewhere here.

SMILES	RGS16-Gao HTS	HSV replic up	HSV replic up primary fold	GALR2 ag	PKD1 inh	INS promoter inh	INS promoter inh cell count
Cn1c(C(=O)N2CCN(C(=O)c3ccco3)CC2)cc2c(=O)n(C)c3ccccc3c21	105	i	0.97	-2.1	-1	.	.
Cc1cc(-c2csc(NC(=O)c3ccc(C#N)cc3)n2)c(C)n1Cc1ccco1	96	i	1.1	0.0	-4	7	99
CCc1ccccc1N1C(=O)C2C3CC(=O)C(c4ccccc43)C2C1=O (configuration not stated)	99	i	0.97	.	6	-15	110
O=c1[nH]c(SCc2ccccc2Cl)nc2[nH]ncc12	100	i	0.98	.	-3	32	115
CCOc1ccccc1NC(=O)c1cc(S(=O)(=O)N2CCC3(CC2)OCCO3)ccc1F	4.2*	i	0.96	-1.3	-4	.	.
O=C(Cc1cccc2ccccc12)N/N=C/c1ccc(F)cc1	101	i	0.89	-3.2	-3	.	.
Cn1c2ccc(F)cc2c2ncn(CCCN(CCO)CCO)c(=O)c21	97	i	0.91	-1.4	3	47	216
CCN(CC)c1ccc(/C=c2\sc3nnc(-c4ccccc4Cl)n3c2=O)cc1	133	i	0.9	-1.1	1	-17	59
C(=Nc1ccc(N2CCOCC2)cc1)c1c[nH]c2ccccc12	104	i	0.81	.	.	.	.
CCOC(=O)C1CCCN(S(=O)(=O)c2ccc(C)cc2)C1 (configuration not stated)	107	i	0.94	-3.8	-10	0	143
Cc1[nH]n(-c2nc(-c3cccc([N+](=O)[O-])c3)cs2)c(=O)c1C	97	i	0.98	0.2	4	-15	109
COC(=O)c1sc(N)c(C(=O)OC)c1COC(=O)[C@@H](NS(=O)(=O)c1cccc(Cl)c1)C(C)C	104	i	1.1	-0.7	7	16	129
CCOc1ccc2[nH]c(=O)c(CN(CCN3CCCC3)C(=S)Nc3ccccc3OC)cc2c1	104	i	0.92	.	-7	-56	158
COc1ccc(N(CC(=O)NN=C2CCCCCCC2)S(=O)(=O)c2ccccc2)cc1Cl	99	i	0.86	-1.0	-5	-10	45
Cc1ccc(Cn2nc(C)c(NC(=O)C3CC3)c2C)cc1	97	i	1	-2.5	-4	17	117
COc1ccc(C(=O)C[n+]2ccccc2/C=N/O)cc1	103	i	0.93	-0.6	8	-27	143
O=C1c2ccccc2C(=O)N1CCc1nc2ccccc2c(=O)n1Cc1ccco1	93	i	1.1	-3.0	-12	.	.
Cn1c(=O)oc2cc(S(=O)(=O)Nc3ccc(Cl)cc3F)ccc21	85	i	0.89	-0.8	0	.	.
N/C(Cc1nc2ccccc2s1)=N\O	103	i	1.1	.	.	.	.
O=C(COC(=O)c1ccccc1)Nc1ccccc1Sc1ccccc1	110	i	0.89	-0.9	-3	.	.
CCOC(=O)Cc1cc(-c2ccccc2)nc2ccc3ccccc3c12	106	.	.	-1.8	-7	.	.
CCOC(=O)/C=C(\C)Sc1cc(O)c2ccccc2c1O	11*	i	0.58	.	.	.	.
COC(=O)c1cnc(NNS(=O)(=O)c2ccc(C(F)(F)F)cc2)nc1C(F)(F)F	98	i	0.95	.	.	.	.
COc1ccc(C(=O)NCC(=O)OCC(=O)c2ccc3c(c2)OCCO3)cc1	97	i	1	-0.6	-3	-2	110
Cc1cccc(Nc2nc(N)nc(CCl)n2)c1	97	i	0.55	.	.	.	.
CC(C)(O)c1cn(-c2nonc2N)nn1	98	i	1	-5.4	4	-57	59
Cc1ccc(Cn2nnc3c(=O)n(CC(=O)N4CCCc5ccccc54)cnc32)cc1	102	i	0.91	-0.6	3	19	112
CCOc1cc(CNCc2cccs2)cc(Br)c1OC	97	i	1	-0.6	0	.	.
CC(C)Sc1nc2sc3c(c2c2nnc(SCC(=O)NCc4ccco4)n12)CCCC3	83	i	0.91	0.2	-3	42	169
Fc1cccc(Nc2ncnc3sc4c(c23)CCC4)c1	107	i	1	-0.1	-5	-7	138
C/C(=N\NC(=O)c1sccc1-n1cccc1)c1cccs1	93	i	0.96	.	-2	0	124
COc1ccc(OC)c(-n2c(-c3ccccc3)n[nH]c2=S)c1	-35	i	0.7	-1.3	-1	.	.
COc1ccc(F)cc1S(=O)(=O)NC1CCCC1	96	i	1.1	-1.5	-3	-83	52
COc1cc(NC(=O)c2ccc(NS(=O)(=O)c3c(C)noc3C)cc2)cc(OC)c1	104	i	0.99	-1.4	14	.	.
COC(=O)c1ccc(OC(=O)CCN2C(=O)C3CCCCC3C2=O)cc1 (configuration not stated)	142	i	1	-0.3	-3	.	.
CCCc1nnc(NC(=O)Nc2ccc(OC)cc2)s1	102	i	1.1	.	-9	.	.
CNC(=O)c1ccccc1Sc1ccccc1C#N	46	i	1	.	-2	27	84
CCOc1cc(NC(=O)c2ccccn2)c(OCC)cc1NC(=O)c1ccc(OC)cc1	101	i	0.82	.	-5	.	.
CCCCn1c(SCC(=O)NC2CCS(=O)(=O)C2)nc2cc(S(N)(=O)=O)ccc21 (configuration not stated)	109	i	0.96	.	-4	.	.
CCCCOC(=O)c1ccc(O)cc1	103	i	0.83	-1.8	-12	-71	138
CS(=O)(=O)N(CC(=O)N1CCN(c2ccccc2F)CC1)c1ccc2c(c1)OCCO2	103	i	1	0.1	-6	21	70
CC1OC2(OC1C)C(=O)Nc1ccccc12 (configuration not stated)	135	i	1.1	24*	3	25	94
NC(=O)c1ccc2c(c1)S(=O)(=O)c1ccccc1C2=O	88	i	1	.	.	.	.
CCOc1ccc(OCC)c(S(=O)(=O)NCCOC23CC4CC(CC(C4)C2)C3)c1	35	i	1.1	-0.9	-6	7	88
CC1(C)CC(CC(=O)O)CC(C)(C)N1	102	i	0.99	.	-2	.	.
CCCc1nc(NCc2ccccn2)c2nnn(Cc3ccccc3F)c2n1	98	.	.	-2.1	-2	-14	51
Cn1nc(C(F)(F)F)c(C(=O)Nc2ccc(Cl)cc2)c1Cl	98	i	0.96	-0.2	-6	.	.
COc1cc(NC(=O)CN2C(=O)NC(C)(c3ccc4ccccc4c3)C2=O)c(C)cc1[N+](=O)[O-] (configuration not stated)	111	i	0.88	-0.9	-2	-92	53
CCCC[C@H](CN(N=O)[C@@H](Cc1ccccc1)CN(C)N=O)N(CCc1ccccc1)N=O	94	i	0.77	.	4	.	.
CCCCCC(=O)NC(=S)Nc1ccc(N2CCOCC2)cc1	148	i	0.89	-0.5	-9	11	43
CCC(=O)N1c2ccccc2NC2=C(C(=O)CCC2)C1c1ccco1 (configuration not stated)	102	i	0.91	.	2	40	93
CCN(CC)S(=O)(=O)c1cc(NC(=O)CSc2nccn2C)ccc1C	97	i	0.91	.	-1	.	.
COc1ccc(C(c2sc3nc(C)nn3c2O)N2CCC(O)CC2)cc1OC (configuration not stated)	102	i	0.99	-0.6	0	0	121
CC(C)C1Nc2ccc(S(N)(=O)=O)cc2C2C=CCC21 (configuration not stated)	99	i	1.2	-1.3	-8	-100	105
O=C(COC(=O)C1CCN(S(=O)(=O)c2ccc3c(c2)OCCO3)CC1)Nc1cccc2ccccc12	99	i	0.99	-0.5	-1	.	.
CN(C)C(=O)/C(=C\c1cccc(Oc2ccccc2)c1)NC(=O)c1ccccc1	99	i	0.9	-0.4	-1	-30	87
COc1ccc(/C=N/NC(=O)c2cccnc2)cc1COc1ccc(NC(C)=O)cc1	99	i	0.64	.	.	.	.
Cc1cc(Br)cc2c1NC(=O)C2(O)CC(=O)c1ccco1 (configuration not stated)	100	i	0.97	.	3	.	.
COc1ccc(CN2CCN(S(=O)(=O)c3ccc(F)cc3)CC2)c(OC)c1OC	99	i	0.7	0.1	3	-3	205
CN(C)S(=O)(=O)c1ccc2c(c1)C(CC(=O)O)OC2=O (configuration not stated)	107	i	0.81	-3.3	1	34	162

Compound profiles, as listed above. Screens in order: RGS16-Gao HTS, HSV replic up, HSV replic up primary fold, GALR2 ag, PKD1 inh, INS promoter inh, INS promoter inh cell count
Listed for `CCCc1nc(NCc2ccccn2)c2nnn(Cc3ccccc3F)c2n1` → 98, ., ., -2.1, -2, -14, 51
Listed for `CN(C)S(=O)(=O)c1ccc2c(c1)C(CC(=O)O)OC2=O` (configuration not stated) → 107, i, 0.81, -3.3, 1, 34, 162
Listed for `CCC(=O)N1c2ccccc2NC2=C(C(=O)CCC2)C1c1ccco1` (configuration not stated) → 102, i, 0.91, ., 2, 40, 93
Listed for `COc1ccc(C(c2sc3nc(C)nn3c2O)N2CCC(O)CC2)cc1OC` (configuration not stated) → 102, i, 0.99, -0.6, 0, 0, 121

Other structures:
SMILES	RGS16-Gao HTS	HSV replic up	HSV replic up primary fold	GALR2 ag	PKD1 inh	INS promoter inh	INS promoter inh cell count
C=CCn1c(=O)c(C(=O)Nc2cccnc2)c(O)c2ccccc21	103	i	0.85	-2.4	-6	20	95
COc1ccc(C2=NOC3(CC(=O)N(c4ccc(C)cc4)C3=O)C2)cc1 (configuration not stated)	101	i	0.88	-1.3	5	22	63
CCN(CC)S(=O)(=O)c1ccc(C(=O)NCc2n[nH]c(=S)n2-c2ccc(Cl)c(Cl)c2)cc1	59	i	0.99	.	-1	27	129
CCn1cc(/C=C/C(=O)c2ccc(O)cc2)c(C)n1	98	i	1.1	.	2	18	145
CCOc1ccc(OCC)c(S(=O)(=O)N2CCCCC2)c1	106	i	0.92	-1.5	-4	12	137
Oc1cccc(NC(=S)Nc2cccnc2)c1	100	i	0.99	-0.7	9	18	66
CCCSc1nc2cc(OC)c(OC)cc2c(=N)n1CCCN1CCOCC1	109	i	0.88	.	-1	-100	57
C=CCOc1c(Br)cc(CNc2ccc(NC(=O)C(C)C)c(OC)c2)cc1OCC	81	i	0.81	-1.9	-7	-27	44
COc1ccc(NC(=O)CC2C(=O)N(c3cccc(C)c3)C(=O)N2C2CCCCC2)cc1 (configuration not stated)	101	i	0.95	-0.4	-3	-71	98
CS(=O)(=O)Nc1ccc(S(=O)(=O)NC2CCCCC2)cc1	100	i	1.2	.	-7	.	.
COc1ccccc1C(c1nnnn1C(C)(C)C)N1CCN(Cc2ccccc2)CC1 (configuration not stated)	107	i	1.1	-2.0	-1	67	134
CCOC(=O)C1CCN(C(c2cc3ccc(C)c(C)c3[nH]c2=O)c2nnnn2C2CCCCC2)CC1 (configuration not stated)	100	i	1	-1.0	7	.	.
CC(SCc1cn2cc(Cl)ccc2n1)C(=O)O (configuration not stated)	104	i	0.98	-1.7	-4	9	95
Cc1c(NC(=O)c2noc(C(C)C)c2[N+](=O)[O-])c(=O)n(-c2ccccc2)n1C	102	i	1	-3.0	2	.	.
O=C(Cc1ccccc1)NN1C(=O)/C(=C/c2ccccc2C(=O)O)SC1=S	103	i	1	.	-1	.	.
CC(=O)N/C(=N/c1nc(C)cc(C)n1)Nc1ccc(NC(C)=O)cc1	176	i	0.89	-1.4	-13	-300	111
CCCNc1c(F)c(F)c2c(C)c3ccccc3nc2c1F	100	i	1.1	-2.1	13	-160	108
COc1cc(OC)cc(C(=O)NCCSC2CCCCC2)c1	101	i	0.87	.	1	.	.
COCCSc1nnc(NC(=O)CSc2ccccc2)s1	104	i	0.88	-1.0	9	.	.
Cc1onc(-c2c(Cl)cccc2Cl)c1C(=O)c1c[nH]c(C(=O)NCC2CCCO2)c1 (configuration not stated)	94	i	1.1	.	1	.	.
COc1ccc(NC(=O)NC2(C(=O)N3CCCCCC3)CCCCC2)cc1	106	i	1	-2.4	-3	.	.
CC(C)C(=O)N1CCN(c2ccccc2N)CC1	100	i	1.1	-2.2	-3	.	.
CCN1C(=O)C(CC(=O)Nc2cccc(C(C)=O)c2)S/C1=N\c1ccccn1 (configuration not stated)	107	i	1	-1.5	1	.	.
N#Cc1ccc(NC(=O)C2CC(c3ccc(F)cc3)=NO2)cc1 (configuration not stated)	151	i	1	-1.9	7	.	.
O=C(NC1CCN(C(=O)N2CCOCC2)CC1)c1ccccc1	101	i	0.91	0.9	-10	9	38
COc1ccccc1N1CCSC1C(N)=O (configuration not stated)	95	i	0.92	-3.9	-19	-50	74
COc1cc2c(cc1OC)C(=O)Cc1ccc3c(c1CN(C)CC2)OCO3	101	i	0.99	.	13	.	.
CCOC(=O)/C(=C\Nc1ccc(OC(F)(F)F)cc1)Sc1ncc(C(F)(F)F)cc1Cl	106	i	0.94	-0.7	1	.	.
CC1SC(C)C(=O)N(CC(=O)NCc2ccc(F)cc2)C1=O (configuration not stated)	104	i	0.91	-0.1	-9	.	.
Cn1cc(CN2CCC[C@H]2CO)c(-c2cccc(Cl)c2)n1	105	i	1	.	-4	.	.
CCCCN1c2ccccc2N(CCCO)c2cc(C)nnc21	99	i	1	-1.5	7	-51	110

Not a retest: entries from further up.
SMILES	RGS16-Gao HTS	HSV replic up	HSV replic up primary fold	GALR2 ag	PKD1 inh	INS promoter inh	INS promoter inh cell count
Cn1c(C(=O)N2CCN(C(=O)c3ccco3)CC2)cc2c(=O)n(C)c3ccccc3c21	105	i	0.97	-2.1	-1	.	.
Cc1cc(-c2csc(NC(=O)c3ccc(C#N)cc3)n2)c(C)n1Cc1ccco1	96	i	1.1	0.0	-4	7	99
CCc1ccccc1N1C(=O)C2C3CC(=O)C(c4ccccc43)C2C1=O (configuration not stated)	99	i	0.97	.	6	-15	110
